Bioassay records (PubChem)
Marburg entry inh – inhibitors of Marburg virus binding or cell entry | Potency, µM (highest dose often 37.8 µM), without a hit: top-dose activity change, negative = inhibition, most hits filed as inhibitors | AID 540276 | Marburg virus pseudotyped entry inhibition, cell reporter; control for the full effect not named in the record; about a third of the inactives were read at about 46 µM | actives 1.8% (n = 300,000); active = well fitted inhibition curve with a large enough effect; inconclusive = small, poorly fitted or top-dose-only effect, or effect the other way; inactive = flat fitted curve, though single readings scatter; tested in HEK293 cells; about a fifth of its hits are not listed in these tables; further: on the % scale 0 is the no-effect control and ±100 the full control effect; luciferase read-out
Cruzain noTriton – blocks cruzain activity in detergent-free assay | P25779 | purified cruzain, Z-FR-AMC fluorescence, no detergent | Potency, µM, without a hit: max response, negative = inhibition, hits mostly inhibitors | actives 2.3% (n = 200,000) | AID 1476;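 further: plate controls were enzyme without inhibitor for no effect and buffer without enzyme for full effect; nearly all actives have a fitted effect of over 40% in size; top concentration of the series not given in the record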
Target sequence (P25779 123-467 limits assumed): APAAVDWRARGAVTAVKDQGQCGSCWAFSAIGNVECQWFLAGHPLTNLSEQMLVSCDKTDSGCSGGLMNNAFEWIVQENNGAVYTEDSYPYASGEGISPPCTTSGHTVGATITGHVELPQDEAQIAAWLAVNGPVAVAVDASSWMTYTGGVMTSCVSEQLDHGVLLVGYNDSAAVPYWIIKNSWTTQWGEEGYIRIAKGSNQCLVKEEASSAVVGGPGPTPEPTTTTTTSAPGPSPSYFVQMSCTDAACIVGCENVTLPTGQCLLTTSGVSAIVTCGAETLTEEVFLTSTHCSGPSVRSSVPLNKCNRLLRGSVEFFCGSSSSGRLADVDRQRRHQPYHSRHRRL
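Purified cruzain at 1.5 nM, pre-incubated 15 min with compound at room temperature in 100 mM sodium acetate pH 5.5, 5 mM DTT, 0.00005% Triton X-100. Reaction started with 2 uM Z-FR-AMC; AMC fluorescence increase over 60 s gives rate.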
RE007 growth inh – less growth of the S. pombe RE007 Vpr strain; AID 651644; Potency, µM (doses to about 92.2 µM), inactives show at the top dose activity change, negative = less growth; actives 0.21% (n = 360,000); S. pombe RE007 Vpr strain, BacTiter-Glo ATP luminescence, 24 h; control for the full effect not named in the record; active = well fitted falling curve with a large enough effect; inconclusive = small, poorly fitted or top-dose-only effect; inactive = no such curve, though single readings can be large or run the other way;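 further: on the % scale 0 is the no-effect control and ±100 the full control effect; nearly all actives have a fitted effect of over 50% in size; the assay follows cell death caused by Vpr and the record does not say whether a fall means rescue or toxicity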
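Fission yeast RE007 carrying one integrated HIV-1 vpr copy, seeded at OD 0.01 in PMG+AL medium with 23 nL pinned compound. Grown 24 h at 30 degrees; viability read by BacTiter-Glo luminescence after 5 min.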
NS1 function inh – influenza NS1 inhibition; AID 2326; Potency, µM (top dose mostly 46.1 µM), for inactives: at the highest dose activity, positive = more growth; S. cerevisiae slowed by influenza A NS1, growth recovery by OD600; actives 0.4% (n = 270,000); active means well fitted rising curve with a large enough effect; inconclusive means small, poorly fitted or top-dose-only effect; inactive means no such curve, though single readings can be large or run the other way; further: nearly all actives have a fitted effect of over 50% in size
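S. cerevisiae expressing influenza A NS1, grown in glucose, washed, then diluted 1:100 into pH 6.0 -URA galactose medium with 23 nl compound. Growth recovery read as OD600; NS1-free strain serves as control.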
StopGo reporter – FMDV 2A StopGo reporter, luciferase signal | actives 1.2% (n = 410,000) | Potency, µM (doses to about 57.9 µM), for the others: top-dose signal change, negative = less light | human cells with a luciferase reporter of 2A StopGo recoding; control for the full effect not named in the record | AID 1159524; active = well fitted falling curve with a large enough effect; inconclusive = small, poorly fitted or top-dose-only effect; inactive = no such curve, though single readings can be large or run the other way; tested in HEK293T cells; further: on the % scale 0 is the no-effect control and ±100 the full control effect; nearly all actives have a fitted effect of over 45% in size; luciferase light after 4 h
LASV entry inh – inhibitors of Lassa virus binding or cell entry; Lassa virus pseudotype entry inhibition, cell reporter; control for the full effect not named in the record; Potency, µM (doses to about 37.9 µM), inactives show top-dose activity change, negative = inhibition, hits mostly inhibitors; actives 1.2% (n = 300,000); active means well fitted inhibition curve with a large enough effect; inconclusive means small, poorly fitted or top-dose-only effect, or effect the other way; inactive means flat fitted curve, though single readings scatter; tested in HEK293 cells; further: on the % scale 0 is the no-effect control and ±100 the full control effect; nearly all actives have a fitted effect of over 50% in size; luciferase read-out
SARS PLP yeast – SARS-CoV PLP inhibition in yeast; S. cerevisiae expressing SARS-CoV PLpro, growth rescue; control for the full effect not named in the record; actives 0.19% (n = 330,000); AID 485353; Potency, µM (top dose mostly 32.9 µM), for the others: top-dose activity, positive = growth rescue; active means well fitted rising curve with a large enough effect; inconclusive means small, poorly fitted or top-dose-only effect; inactive means no such curve, though single readings can be large or run the other way; further: 0% is about no effect; nearly all actives have a fitted effect of over 55% in size; growth read by luminescence after 48 h
Cruzain inh Det – cruzain (T. cruzi) inhibition with detergent; P25779; purified cruzain, Z-FR-AMC fluorescence, 0.01% Triton; Potency, µM, inactives show max response, negative = inhibition, actives largely listed as inhibitors; actives 0.43% (n = 200,000); AID 1478;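 further: plate controls were neutral wells for no effect and buffer without enzyme for full effect; nearly all actives have a fitted effect of over 40% in size; top concentration of the series not given in the record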
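Purified cruzain (1.5 nM final) was preincubated with compounds for 15 min at room temperature in 100 mM sodium acetate pH 5.5, 5 mM DTT, 0.01% Triton X-100. Reaction started with 2 uM Z-FR-AMC; AMC fluorescence change over 60 s gave activity.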
* marks the source's active call; other numbers are inactive results; u = inconclusive; x = not tested or not shown; & = joins results of further samples; [ ] = remark or other dose. Unless noted, the call rests on the fitted dose curve; in most records, active means well fitted curve in the direction sought with a large enough effect; inconclusive means small, poorly fitted or top-dose-only effect, or another doubt; inactive means no such curve, though single readings can be large; an effect the other way counts as inactive or inconclusive. Potency means the concentration at half of the fitted maximal effect.

SMILES	Marburg entry inh	Cruzain noTriton	RE007 growth inh	NS1 function inh	StopGo reporter	LASV entry inh	SARS PLP yeast	Cruzain inh Det
CC(=O)CC(C)(C)S(=O)(=O)c1ccc(Oc2ccc(S(=O)(=O)C(C)(C)CC(C)=O)cc2)cc1	8%	u	11%	-25%	u	4%	-25%	0.1%
CCc1nnc(NC(=O)/C=C/c2ccco2)s1	-2%	-20%	-2%	8%	44%[activator]	x	1%	-5.0%
CN(C(=O)CC1C(=O)NCCN1C/C=C/c1ccccc1)C1CCOCC1 (centres undefined)	26%	x	6%	-2%	-11%	12%	1%	x
Oc1ccc(/C=N/Nc2nc(-c3cccnc3)nc3ccccc23)c(O)c1	x	x	-2%	10%	0%	x	1%	x
CCn1c(C)cc(/C=C2/SC(=S)NC2=O)c1C	3%	-28%	12%	-11%	7%	16%	-10%	-3.3%
Cc1cccc(N(C)C(=O)Cn2c(=O)oc3cc(S(=O)(=O)N4CCCCC4)ccc32)c1	-2%[46.1 µM]	-10%	x	x	-9%	x	x	0.1%
CCOc1cccc2sc(N(CCCN(C)C)C(=O)c3ccc(S(=O)(=O)N4CCCCCC4)cc3)nc12	u	x	-8%	0%	-14%	u	-3%	x
COc1ccc(-c2noc(C3CC(=O)N(c4ccc5c(c4)OCCO5)C3)n2)c(OC)c1 (centres undefined)	x	-3%	x	x	-13%	u	x	-1.8%
COc1ccc(/C=N/NC(=O)c2ccc(CSc3nncn3C)cc2)cc1OC	-4%[46.1 µM]	x	10%	x	6%	15%[46.1 µM]	2%	x
N#CC1(c2ccc(NC(=O)c3ccccc3F)cc2)CCCC1	u	0%	-7%	-13%	-26%	u	-83%	-6.5%
O=C(CSc1nc2ccccc2o1)N/N=C/c1ccc(O)c(O)c1	x	x	2%	13%	-4%	x	0%	x
O=C(CSc1nnc2sc3ccccc3n12)c1ccco1	21%	-8%	-5%	-5%	x	12%	-6%	-0.7%
CNC(=O)NC(=O)C(OC(=O)Cc1cccc(C(F)(F)F)c1)c1ccccc1 (centres undefined)	0%[46.1 µM]	x	2%	13%	-6%	u	9%	x
O=S(=O)(NCc1ccco1)c1ccc(Cl)s1	-23%[46.1 µM]	x	0%	x	34%[activator]	5%[46.1 µM]	3%	x
CC(=O)Nc1ccc(S(=O)(=O)NC(CC(=O)O)c2ccc(OC(C)C)cc2)cc1 (centres undefined)	16%	0%	18%	-8%	13%	-14%	-1%	8.1%
O=C1c2ccccc2C(=O)N1n1cccc1	u	3%	-4%	-1%	-20%	8%	22%	1.9%
COc1ccccc1N1CCN(C2CCN(C(=O)COc3ccccc3)CC2)CC1	-12%[46.1 µM]	x	5%	5%	-16%	u	0%	x
COCCN(CCOC)S(=O)(=O)c1ccc(C(=O)Nc2nnc(COC)o2)cc1	1%	x	22%	x	-13%	6%	1%	x
Cc1cccc(NC(=O)C2CCCN(c3nc(C)cc(C)n3)C2)c1 (centres undefined)	8%	-14%	-6%	8.9µM*	1%	2%	-1%	1.6%
Cn1nc(OCC(N)=O)ccc1=O	8%	3%	4%	3%	-11%	4%	-6%	2.4%
COc1cc(OC)c(N(C)C(=O)CCNC(=O)Cn2cnc3ccccc3c2=O)cc1Cl	0%&20%	12%&-2%	-1%	-4%	0%&8%	2%	-1%	4.2%&0.1%
CCOc1ccccc1N1CCN(c2nc3ccccc3nc2C(C#N)C(=O)OC)CC1 (centres undefined)	u	-8%	7%	-6%	u	18%	-2%	-7.4%
C/C(=N\Nc1ccc(Cl)c(C(=O)O)c1)c1ccc2c(c1)OCO2	26%	x	-14%	x	77%[activator]	-3%	1%	x
COc1cc2oc(=O)c(CC(=O)NCCc3ccccc3F)c(C)c2cc1OC	u	-12%	x	x	-1%	1%[46.1 µM]	x	-18%
O=C(Nc1nsc(-c2ccccc2)n1)c1ccncc1	17%	-8%	-11%	-5%	-2%	16%	-3%	5.6%
COc1ccc(N2CCN(C(=O)CCC(=O)NNc3nc4ccccc4c4nc(C)nn34)CC2)cc1	14%&14%[46.1 µM]	u	10%	15%	-13%&-1%	26%[46.1 µM]	28%	0.0%
CC(=O)c1oc2ccccc2c1NC(=O)CN1CCCCC1	-23%	-15%	0%	-4%	x	0%	-10%	-3.8%
Cc1cc(OCC#N)nc(N)n1	x	x	-10%	2%	-16%	x	0%	x
Cc1ccc(-c2cc(-c3n[nH]c(=S)n3C)c3ccccc3n2)cc1	-13%[46.1 µM]	x	9%	x	13%	18%[46.1 µM]	-3%	x
COCCCn1nnnc1SCC(=O)Nc1ccc2c(c1)OCCO2	x	x	-6%	3%	27%	x	0%	x
COc1ccc(S(=O)(=O)NCCC(=O)NC2CCCCCCC2)cc1	-1%	-5%	-16%	-3%	u	-16%	-1%	-0.2%
Cc1ccc(S(=O)(=O)NNC(=O)C2CCN(Cc3ccccc3)CC2)cc1	u	-7%	-10%	6%	-15%	-16%	-4%	2.8%
Brc1ccc(-n2cc(-c3ccccc3)c3c(NN4CCOCC4)ncnc32)cc1	7%	u	5%	8%	u	16%	-4%	-8.5%
CC(C)Cc1c2c([nH]c(=S)c1C#N)CCCC2	-1%	-2%	x	u	-20%	21%	u	-2.2%
Cc1cc(NC(=O)CN(C)S(=O)(=O)c2cccc(Cl)c2)no1	18%[46.1 µM]	x	29%	x	-4%	7%	1%	x
COc1ccc(C(=O)N2CCN(Cc3ccc(OC)c(OC)c3)CC2)cc1	9%[46.1 µM]	x	-3%	-10%	-15%	-11%[46.1 µM]	1%	x
Cc1nc2ccc(NC(=S)NCc3ccccc3)cc2nc1C	8%[46.1 µM]	x	30%	-6%	-2%	-13%[46.1 µM]	0%	x
CCOC(=O)c1cnc2c(OC)cccc2c1N1CCN(c2ccc(OC)cc2)CC1	-25%	u	28%	u	-29%	u	-9%	0.5%
CC(=O)NC(Cc1ccc(C(C)C)cc1)C(=O)NC1CCN(C(=O)c2cccc(C)c2)CC1 (centres undefined)	5%[46.1 µM]	x	0%	2%	-16%	-23%[46.1 µM]	0%	x
COc1cc(C(N)=O)ccc1OCc1ccccc1	u	-1%	-14%	-6%	1%	26%	x	4.0%
Cc1ncc(S(=O)(=O)c2ccccc2)c(-c2ccccc2Cl)n1	-11%[46.1 µM]	3%	15%	-6%	-16%	7%	-2%	-3.6%
CC(=O)c1cccc(NC(=O)Cn2cnc(S(=O)(=O)N3CCOCC3)c2)c1	u	x	8%	-6%	-2%	14%[46.1 µM]	1%	x
O=C(Nc1cc([N+](=O)[O-])ccc1O)c1cccc(NC(=O)c2ccco2)c1	-4%[46.1 µM]	x	-6%	-8%	6%	-10%[46.1 µM]	-1%	x
Cc1coc2cc3oc(=O)c(CCC(=O)NCc4ccc(Cl)cc4)c(C)c3cc12	2%[46.1 µM]	-7%	x	x	-6%	-1%[46.1 µM]	x	-4.1%
N#Cc1c2ncn(CC(=O)c3ccc(Br)cc3)c(=O)c2c2n1CCC2	-2%[46.1 µM]	-13%	2%	-3%	-9%	7%	6%	4.3%
CC(=O)C1C(c2ccc(O)cc2)NC(=O)NC1(O)C(F)(F)F (centres undefined)	x	x	-4%	3%	-20%	x	0%	x
COc1cc(NC(C)=O)ccc1-c1cc2ccccc2oc1=O	2%[46.1 µM]	x	1%	-4%	14%	u	-2%	x
Cc1ccc(C)c(NC(=O)CSc2nnc(C)c(=O)n2N)c1	-1%	-7%	27%	11%	0%	-1%	-8%	0.5%
CCOC(=O)Cc1csc(NC(=O)CCCN2C(=O)c3ccccc3C2=O)n1	u	-16%	14%	-4%	0%	3%	8%	1.9%
CN1CCN(c2ccc(C(=O)NC3CCCCC3)cc2[N+](=O)[O-])CC1	x	x	3%	3%	18%	x	5%	x
COc1ccccc1/C=C/C(=O)N1CCC(c2ccccc2)C1 (centres undefined)	u	-22%	-11%	1%	25%	7%	15%	-7.1%
CC1(C)C(=O)Nc2ccccc2N1C(=O)CSc1nnc2ccccn12	16%	5%	-5%	6%	-4%	-19%	25%	-5.5%
Cc1nnc(SCC(=O)N2CCOCC2)s1	14%	0%	-10%	8%	-7%	1%	-3%	-6.4%
CCNCc1cc(Cl)c(OCc2ccccc2)c(OCC)c1	u	x	4%	6%	0%	u	0%	x
O=[N+]([O-])c1cc(-c2nc(-c3ccco3)no2)ccc1NCc1ccccc1	-21%[46.1 µM]	9%	x	x	37%[activator]	-22%[46.1 µM]	x	-12%
CCC(C)c1ccc2oc(-c3ccc(NC(=O)Cn4cnc5c(=O)n(C)c(=O)n(C)c54)cc3)nc2c1 (centres undefined)	u	u	5%	6%	14%	u	-12%	-11%
C=CCn1c(SCC(=O)N2CCN(CCO)CC2)nc2sc3c(c2c1=O)CCC3	4%	x	19%	6%	-27%	0%	-6%	x
O=C(Nc1ccccc1N1CCOCC1)c1ccc([N+](=O)[O-])s1	u	x	-17%	x	25%	-22%	-5%	x
O=C(COC(=O)/C=C/c1cccs1)Nc1ccccc1Cl	7%[46.1 µM]	x	-6%	x	14%	-5%[46.1 µM]	-2%	x
Cc1cc(OCc2nn[nH]n2)c2c3c(c(=O)oc2c1)CCCC3	-3%	-18%	12%	2%	21%	26%	-8%	-9.1%

The results go on.
SMILES	Marburg entry inh	Cruzain noTriton	RE007 growth inh	NS1 function inh	StopGo reporter	LASV entry inh	SARS PLP yeast	Cruzain inh Det
Fc1ccc(CNc2nc(-c3ccccc3)nc3ccccc23)cc1	u	x	-20%	x	-6%	-1%	-5%	x
Cn1c(=O)n(C)c2cc(S(=O)(=O)NCc3ccccc3)ccc21	-17%	-2%	-2%	6%	-5%	u	6%	0.3%
CCOc1ccc(C2/C(=C(\O)c3ccc4c(c3)OCCO4)C(=O)C(=O)N2CCCN2CCOCC2)cc1 (centres undefined)	21%[46.1 µM]	x	-5%	4%	-5%	u	u	x
COc1ccc2c(c1)O[C@H](c1ccc3c(c1)OCO3)[C@@H](O)C2=O	24%[14.2 µM]	-7%&-6%	13%	-3%	45%[activator]	u	-4%	5.7%&-2.9%

Rows were taken by chance; about 4.7% have a hit in one of these screens.
